# Source: PubChem
# VDR inh = inhibitors of human vitamin D receptor. AID 504847. actives 0.93% (n = 400,000). Potency, µM, for the others: max response, negative = inhibition, hits mostly inhibitors. VDR-SRC2-3 peptide fluorescence polarization, 2 h; active means well fitted inhibition curve with a large enough effect; inconclusive means small, poorly fitted or top-dose-only effect, or another doubt; inactive means no such curve, though single readings can be large or run the other way; further: series mostly up to about 120 µM
# Target sequence (P11473 whole entry, looked up): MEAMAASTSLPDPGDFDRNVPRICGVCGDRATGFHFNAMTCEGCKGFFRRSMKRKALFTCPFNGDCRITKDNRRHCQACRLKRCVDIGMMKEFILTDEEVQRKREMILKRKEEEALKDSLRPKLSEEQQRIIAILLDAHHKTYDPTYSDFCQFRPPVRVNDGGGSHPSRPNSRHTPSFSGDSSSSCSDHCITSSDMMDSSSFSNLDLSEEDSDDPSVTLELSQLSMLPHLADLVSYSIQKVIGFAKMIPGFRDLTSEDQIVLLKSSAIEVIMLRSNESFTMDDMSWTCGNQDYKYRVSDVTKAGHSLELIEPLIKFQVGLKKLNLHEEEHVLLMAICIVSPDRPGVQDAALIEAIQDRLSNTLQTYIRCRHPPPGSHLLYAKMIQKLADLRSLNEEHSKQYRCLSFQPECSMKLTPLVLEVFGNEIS
#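 Measured by FP: displacement of SRC2-3 coactivator peptide from VDR by library compounds, following a two-hour ambient incubation.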
# Numbers without * were called inactive; ? = inconclusive; & = joins results of further samples; [ ] = another dose, or the depositor's remark. On the % scale 0 is the no-effect control and ±100 the full control effect; potency means the concentration at half of the fitted maximal effect. Not all compounds are listed, so the mix of outcomes need not match the whole.
VDR inh | compound
1% | Cc1ccc(NC(=O)OCc2ccccc2S(C)=O)cc1 (stereo not given)
-19% | CCN(CC)CCCOc1ccc(C)cc1Br
2% | Cc1cc(C)c(Cn2c3ccccc3c3cnn(CC(=O)NCCCc4ccccc4)c(=O)c32)c(C)c1
-25% | CC(C)C[C@H](NC(=O)N1CC(=O)Nc2ccccc21)C(=O)N[C@H](Cc1c[nH]c2ccccc12)C(=O)O
-12% | S=C(NCCC1=CCCCC1)Nc1ccccc1
? | Cc1ccc(Nc2c(-c3ccsc3)nc3c(C)cccn23)cc1
0% | Cc1cc(C)n2nc(C(=O)OCC(=O)N(C)CC(=O)Nc3ccc(F)cc3)nc2n1
-9% | CC1(C)C([N+](=O)[O-])C(c2ccccc2O)NC(c2ccccc2O)C1[N+](=O)[O-] (stereo not given)
-13% | COc1ccc(CCNC(=O)CSc2nnc(Cc3cccn3C)n2C)cc1OC
6% | COc1ccccc1OCC(=O)Nc1c(C(=O)c2ccc(C)cc2)oc2ccccc12
-2% | Cc1cccc(NC(=O)CSc2nnc(-c3cccs3)o2)c1
3% | CCc1noc(C)c1C(=O)Nc1nc(-c2ccc(OC)c(OC)c2)cs1
27% | Cc1cc(NC(=O)c2cnn3cccnc23)nn1CC(=O)Nc1cccnc1
12% | Cc1cc2c(OCC(O)CNCc3ccco3)cccc2[nH]1 (stereo not given)
-10% | COc1ccc(OC)c(S(=O)(=O)N2CCN(c3ccccc3OC)CC2)c1
1% | N#C/C(=C/c1ccc(CNC(=O)C(=O)Nc2cc(Cl)cc(Cl)c2)o1)C(=O)NCc1cccnc1
24% | CN=C(C)/C(C(=O)OC)=C(/O)c1ccc(Cl)cc1Cl
1% | COc1cc(CO)ccc1Oc1nnnn1-c1ccc(C(N)=O)cc1
12% | COc1ccccc1-c1ccc(=O)n(CC(=O)NCc2ccc3c(c2)OCO3)n1
-8% | CCOC(=O)c1ccccc1NC(=O)c1c(N)n(C)c(=O)[nH]c1=O
-4% | COc1ccc(CNS(=O)(=O)c2ccc(-n3cccn3)cc2)cc1
-11% | N#C/C(=C\C1=C(N2CCOCC2)C(=C/c2cccc([N+](=O)[O-])c2)/CC1)C(=O)Nc1ccccc1F
13% | O=C(c1ccco1)N1CCN(CC(=O)N2CCCc3c2c(=O)oc2ccc(O)cc32)CC1
? | CCc1cc2ccc(OC)cc2nc1SCC(=O)N1CCN(C(=O)c2ccco2)CC1
-2% | O=C(NC(=S)N1CCCCCC1)c1ccccc1

# Looked up one by one from above, 2 records:
VDR inh | compound
-12% | S=C(NCCC1=CCCCC1)Nc1ccccc1
-4% | COc1ccc(CNS(=O)(=O)c2ccc(-n3cccn3)cc2)cc1

# The results go on.
VDR inh | compound
-4% | Cc1nn(-c2ccccc2)c2[nH]c(=O)c(CNc3ccc4c(c3)OCCO4)cc12
10% | COc1cccc(N2CC(=O)N(NC(=O)c3sc4nc(C)cc(C)c4c3N)CC2=O)c1
10% | CC1=C(c2ccc(C)cc2)S(=O)(=O)N(Cc2ccc(C(=O)NCc3ccccc3)cc2)C1=O
0% | Cc1ccn(CC(=O)N2CCCC(C(=O)c3cccc4ccccc34)C2)n1 (stereo not given)
-8% | O=C(N/N=C/c1ccc(O)c(O)c1)c1cccc(S(=O)(=O)N2CCCC2)c1
-7% | CCOc1ccccc1NC(=O)c1ccc2c(c1)C(=O)N(CC1CCCO1)C2=O (stereo not given)
11% | COc1ccc(N(C(C)C(=O)N/N=C/c2ccc(OC(C)C)cc2)S(C)(=O)=O)cc1 (stereo not given)
13% | CCn1c(=O)c(C(=O)CN(C)CC(=O)Nc2cccc(F)c2)c(N)n(Cc2ccccc2)c1=O
-12% | Cc1[nH]c2ccccc2c1C(=O)C(=O)N1CCOCC1
27% | CC(Oc1ccc(Cl)cc1Cl)C(=O)NCCN1CCOCC1 (stereo not given)
-13% | CC12C(=O)N(c3cccc(OC(=O)c4ccco4)c3)C(=O)C1C1c3ccccc3C2c2ccccc21 (stereo not given)
-21% | CCOC(=O)c1c(NC(=O)c2ccc(OC)c(OC)c2)sc2c1CCCCC2
-12% | COc1ccccc1NC(=S)N/N=C/c1ccc(O)cc1
-18% | N#Cc1ccc(Cl)cc1NC(=O)CNCc1cccs1
-17% | O=C(NC1CCCCC1)C1CC(=O)N(Cc2ccccc2)C1 (stereo not given)
-4% | Cc1cc(CNC(=O)COc2c(F)c(F)cc(F)c2F)c2ccccc2n1
-5% | COCc1cc(C)nc(SCc2ccccc2)c1C#N
-16% | CC1CCN(C(=O)c2ccccc2NS(=O)(=O)c2ccccc2)CC1
-8% | CC1=NN(C(=O)c2ccc(Cn3nc(C)c([N+](=O)[O-])c3C)cc2)C(O)(C(F)(F)F)C1 (stereo not given)
10% | Cn1c(SCC(=O)Nc2sc3c(c2C#N)CCC3)nnc1C1COc2ccccc2O1 (stereo not given)
-24% | Cc1ccc(C(=O)N2CCN(c3ccc(N4CCOCC4)nn3)CC2)cc1
5% | Cc1ccc2[nH]c(=O)c(CN(CCCO)S(=O)(=O)c3c(C)ccc4nsnc34)cc2c1
-5% | COCCN(CCOC)Cc1c(O)ccc2c1O/C(=C\c1ccc(C)o1)C2=O
3% | COc1cc(-c2ccccc2)nc2ccccc12
14% | O=C(N/N=C/c1cccc([N+](=O)[O-])c1)c1nc2ccccc2c(=O)[nH]1

# Rewritten field by field: 2 of the compounds above
COCCN(CCOC)Cc1c(O)ccc2c1O/C(=C\c1ccc(C)o1)C2=O
  VDR inh: -5%

COc1cc(-c2ccccc2)nc2ccccc12
  VDR inh: 3%

# Laid out differently: results already given.
> CCOC(=O)c1c(NC(=O)c2ccc(OC)c(OC)c2)sc2c1CCCCC2
  VDR inh: -21%

> COc1ccccc1NC(=S)N/N=C/c1ccc(O)cc1
  VDR inh: -12%

> N#Cc1ccc(Cl)cc1NC(=O)CNCc1cccs1
  VDR inh: -18%

> O=C(NC1CCCCC1)C1CC(=O)N(Cc2ccccc2)C1 (stereo not given)
  VDR inh: -17%

# Following part.
VDR inh | compound
6% | COc1ccc(N2CCN(S(=O)(=O)CCNC(=O)C(c3ccccc3)c3ccccc3)CC2)cc1
9% | Cc1nn(-c2nc3ccccc3s2)c(N)c1Sc1ccc(F)cc1
17% | COc1ccc(C(=O)Nc2nnc(SCc3cc(=O)c4cc(C)ccc4[nH]3)s2)cc1OC
-7% | COc1ccc(Cc2nnc(SCC(=O)NC3CCCC3)o2)cc1
-14% | O=C(Cn1sc2ccccc2c1=O)N1CCN(C(=O)c2ccco2)CC1
-5% | CC1CC(C)CN(C(=O)Nc2ccccc2F)C1 (stereo not given)
-8% | COc1ccccc1CCNC(=O)C1CCN(c2nnc(-n3cccc3CNc3ccc(C)cc3)s2)CC1
1% | Cc1c(/C=N/NC(=O)c2cc(=O)[nH]c(=O)[nH]2)c2ccccn2c1C(=O)c1ccccc1
-16% | COc1ccc(-c2cc(C(F)(F)F)nc(SCCC(=O)Nc3c(C)cccc3C)n2)cc1
23% | O=C(COC(=O)C1CCC1)Nc1cccc(S(=O)(=O)N2CCOCC2)c1
19% | Cc1cc(S(=O)(=O)N2CCCOC2CNC(=O)C(=O)NCc2ccco2)ccc1F (stereo not given)
4% | COc1ccc(CCNC(=S)NNC(=O)c2c(Br)c(C)nn2C)cc1OC
13% | Cn1ncc2c(NCc3ccc(F)cc3)ncnc21
-3% | COc1ccc(CNc2ncnc3sccc23)cc1OC
-15% | O=C(NNC(=O)C1CC2CCC1C2)c1ccccc1 (stereo not given)
0% | Nc1[nH]nc2nc(N3CCCC3)nc(-c3ccccc3)c12
4% | CC1CCC(NC(=O)C2COc3ccccc3O2)CC1 (stereo not given)
22% | O=C(CCN1C(=O)C2C3C=CC(C3)C2C1=O)N1CCN(c2ccccn2)CC1 (stereo not given)
4% | Cc1ccc(S(=O)(=O)NCCC(=O)NCc2ccc(Cl)cc2)cc1C
-10% | CC(=O)Nc1ccc(S(=O)(=O)N(C)c2ccc(OCCOc3ccccc3F)cc2)cc1
1% | C/C(=N/NC(=S)Nc1cccc(C)c1)c1cccc([N+](=O)[O-])c1
? | COc1ccc(C(=O)N2CCC3(CCCN(Cc4ccc(C#N)cc4)C3)CC2)cc1
-4% | O=C(NCCc1ccccc1)C1CCN(C2CCN(C(=O)CC3=CCCCC3)CC2)CC1
-8% | O=C(NC(NC(=S)Nc1ccccc1Cl)C(Cl)(Cl)Cl)c1cccc(Cl)c1 (stereo not given)
-9% | COc1cc(NC(=O)c2cccc(Br)c2)nc(OC)n1
-8% | COC(=O)c1cc(NC2c3ccccc3C(=O)N2Cc2ccco2)cc(C(=O)OC)c1 (stereo not given)
11% | COc1ccccc1N1CCN(C(=O)CSc2nc3ccccc3nc2Cc2ccc(F)cc2)CC1
-5% | Cc1nc(NC2CCCC2)sc1C(=O)N(C)C
-5% | COc1ccc(OC)c(NC(=O)c2cc3ccccc3cc2OC)c1
-18% | CC(=O)C[C@@H](O)CC(=O)[C@@H]1OC(=O)CCCCCCCc2ccccc21
4% | CC(=O)OCc1cnc(C)c2oc(=O)c(C(=O)Nc3cccc(F)c3)cc12
-1% | CC(=O)Nc1ccc(-c2csc(NC(=O)CCCc3cccs3)n2)cc1
-4% | CCCC(=O)NC(=S)Nc1ccccc1C(F)(F)F
3% | Cc1cccc2sc(NC(=O)c3ccc(OCC4CCCO4)cc3)nc12 (stereo not given)
-10% | COc1ccc(-c2ncncc2-c2csc(C)n2)c(O)c1OC
12% | COCc1ccc(-c2ccc3c(c2)c(C#Cc2ccsc2)c(-c2cc(OC)cc(OC)c2)n3C)cc1
-10%&3% | CC[N+](C)(CC)CCOC(=O)C1c2ccccc2Oc2ccccc21
-4% | O=C(CN1C(=O)NC2(CCc3ccccc32)C1=O)NCc1cccc(C(F)(F)F)c1 (stereo not given)
4% | COc1ccc(NC(=O)CS(=O)CC(=O)Nc2cccc3cccnc23)cc1 (stereo not given)
-1% | N#CC1(NC(=O)CSc2nnc(-c3ccccc3F)o2)CCCCC1
0% | CC(=O)Nc1cccc(-c2cc(-c3c(Cl)cccc3Cl)no2)c1
-7% | CCCOc1ccc(N2C(=O)CC(N(CCc3ccc(OC)c(OC)c3)C(=S)Nc3ccccc3)C2=O)cc1 (stereo not given)
-2% | CCOC(=O)c1noc2ncn(Cc3cccc(C#N)c3)c(=O)c12
0% | CC1(C)CC(=O)C(C=Nc2ccc3cn[nH]c3c2)=C(O)C1
6% | CCc1ccccc1NS(=O)(=O)c1ccc2[nH]cc(C(=O)N(CC(C)C)CC(C)C)c(=O)c2c1
-9% | CCc1nnc(NC(=O)C2=NN(C3CCS(=O)(=O)C3)C(=O)CC2)s1 (stereo not given)
2% | O=S(=O)(c1ccc(F)cc1)N1CCc2ccccc21
14% | CCOc1ccc(-n2c(SCC(=O)Nc3cccc(Cl)c3)nc3c(oc4ccccc43)c2=O)cc1
-16% | Cc1nc(Nc2cccc(C(C)O)c2)c2nnn(Cc3ccccc3F)c2n1 (stereo not given)
-5% | CC1CN(C(=O)COC(=O)Cc2c(Cl)cccc2Cl)CC(C)O1 (stereo not given)

# In the list so far, these contain bromine:
VDR inh | compound
-19% | CCN(CC)CCCOc1ccc(C)cc1Br
4% | COc1ccc(CCNC(=S)NNC(=O)c2c(Br)c(C)nn2C)cc1OC
-9% | COc1cc(NC(=O)c2cccc(Br)c2)nc(OC)n1

# Next structures follow.
VDR inh | compound
-25% | CCS(=O)(=O)Nc1cccc(-c2cc(-c3ccccc3)c3cc(C)ccc3n2)c1
-3% | CN(C)CCNC(=O)c1c(NC(=O)c2ccccc2)sc2c1CCCC2
3% | C[C@@]12C(=O)Nc3ccccc3C(=O)N1[C@H]1c3cc(Br)ccc3OC[C@@H]1[C@@H]2c1ccccc1
9% | Cc1cc2nc(C3CCN(Cc4nnnn4Cc4cccs4)CC3)[nH]c2cc1C
0% | Cn1c(C(=O)NCc2cccc(Cl)c2)cc2oc3ccccc3c21
1% | Cc1ccc(CN(C(=O)COc2ccc(Cl)c(C)c2)C2CCS(=O)(=O)C2)o1 (stereo not given)
1% | CCOc1ccc(-n2c(SCc3nc(-c4ccc(OC)cc4)no3)nnc2-c2ccncc2)cc1
-7% | Cc1ccc(C2=Nc3cccnc3C(c3ccccc3)=NN2)cc1
13µM* | N#CC1=C(N)C(C#N)(C#N)[C@H](c2cccnc2)[C@H]2CN(C(=O)OCc3ccccc3)CC=C12
? | COc1ccccc1CNc1nc(-c2ccccc2OC)nc2ccccc12
-1% | Cc1cc(-c2nn(-c3ccccc3F)cc2CN2CCC(C(N)=O)CC2)c(C)s1
7% | CCN(C(=O)CSc1nnc(C)n1Cc1ccccc1)C1CCS(=O)(=O)C1 (stereo not given)
0% | CC(=O)N1CCc2c(sc(NC(=O)CSc3ccc(F)cc3)c2-c2nc3ccccc3s2)C1
-1% | [C-]#[N+][C@H](O[C@@H]1O[C@H](CO)[C@@H](O)[C@H](O)[C@H]1O)c1ccccc1
11% | O=C(CSc1nnc(-c2ccc(F)cc2)c2ccccc12)NCC1CCCO1 (stereo not given)
-5% | O=C(CCN1C(=O)/C(=C/c2ccc(F)cc2)SC1=S)N[C@@H](CO)Cc1ccccc1
-14% | CC(=O)Nc1ccc(C2Sc3ccccc3NC3=C2C(=O)c2ccccc23)cc1 (stereo not given)
30%[activator] | CCN(CC)S(=O)(=O)c1ccc(N2CC(C(=O)NCCc3ccc(Cl)cc3)CC2=O)cc1 (stereo not given)
4% | Cc1cccn(Cc2c(F)cccc2Cl)c1=O
0% | O=c1cc2c(c(-c3ccccc3)n1Cc1ccccc1)[C@@H](CCO)NC2
10% | O=S(=O)(c1ccc(Cl)s1)N1CCc2ccccc2C1
9% | COc1cccc(C(=O)Nc2c(C)n[nH]c2C)c1
